LANA-H2B inh: blockers of LANA interaction with H2A/H2B – biochemical, FP readout, HTS, primary screen; Protein LANA1 (Human herpesvirus 8 type P (isolate GK18)), Q9QR71; cell-free LANA-H2A/H2B peptide, fluorescence polarization; inhibition, % (concentration not given with the values); 0.6% of 320,000 active; in the data active means inhibition mostly above about 10%, no sharp cut-off; inactive means mostly below about 6.7%;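 further: stock transfer was 7.5 nL into about 10 µL; 0% = median of vehicle wells and 100% = median of positive control wells; one replicate is shown; the record names a cut of 25% in any replicate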
Target sequence (Q9QR71 whole entry, looked up): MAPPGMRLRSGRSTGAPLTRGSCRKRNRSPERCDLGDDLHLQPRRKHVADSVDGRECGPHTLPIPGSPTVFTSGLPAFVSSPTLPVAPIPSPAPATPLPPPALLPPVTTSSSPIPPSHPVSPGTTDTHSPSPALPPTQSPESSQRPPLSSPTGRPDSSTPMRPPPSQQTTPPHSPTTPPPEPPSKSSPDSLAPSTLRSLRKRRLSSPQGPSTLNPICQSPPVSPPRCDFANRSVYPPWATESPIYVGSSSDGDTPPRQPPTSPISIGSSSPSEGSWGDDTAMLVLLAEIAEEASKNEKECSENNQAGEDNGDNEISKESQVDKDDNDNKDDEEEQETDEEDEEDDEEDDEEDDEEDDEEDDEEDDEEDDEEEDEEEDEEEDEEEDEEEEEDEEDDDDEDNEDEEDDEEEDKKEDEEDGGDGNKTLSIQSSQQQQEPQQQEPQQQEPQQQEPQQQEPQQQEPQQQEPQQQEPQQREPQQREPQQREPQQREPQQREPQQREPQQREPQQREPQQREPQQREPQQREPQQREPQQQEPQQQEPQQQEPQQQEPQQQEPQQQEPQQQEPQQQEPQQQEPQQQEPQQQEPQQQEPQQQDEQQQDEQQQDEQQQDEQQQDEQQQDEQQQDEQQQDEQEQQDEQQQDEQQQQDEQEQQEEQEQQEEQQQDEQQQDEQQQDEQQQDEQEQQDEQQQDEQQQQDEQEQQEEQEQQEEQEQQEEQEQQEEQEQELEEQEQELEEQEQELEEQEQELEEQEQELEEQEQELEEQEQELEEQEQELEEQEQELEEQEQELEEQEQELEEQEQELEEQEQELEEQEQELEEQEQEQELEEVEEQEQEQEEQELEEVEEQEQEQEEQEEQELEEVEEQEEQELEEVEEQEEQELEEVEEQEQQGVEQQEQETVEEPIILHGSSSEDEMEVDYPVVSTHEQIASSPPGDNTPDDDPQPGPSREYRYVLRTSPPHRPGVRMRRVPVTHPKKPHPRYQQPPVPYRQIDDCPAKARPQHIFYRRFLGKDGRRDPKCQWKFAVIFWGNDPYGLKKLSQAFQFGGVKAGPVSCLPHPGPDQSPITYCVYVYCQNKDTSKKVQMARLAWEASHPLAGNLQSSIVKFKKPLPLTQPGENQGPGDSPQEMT
Beta apoptosis: inhibitors of cytokine-induced beta cell apoptosis, primary screen, luminescence. protection from apoptosis, % (concentration not given with the values). 0.8% of 300,000 active. INS-1E cytokine-induced death, ATP luminescence, 48 h; percent of positive-control rescue, neutral wells zero;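 active means all replicates at 75% or more, or half of them and the mean; inconclusive means half reach 75% but not the mean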;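 further: 0% = cytokine-treated negative control wells and 100% = positive control rescue; higher means more ATP so stronger rescue from cytokine killing; wells of about 40 µL received 100 nL stock; the first replicate is given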
Calb FLC: C. albicans growth inhibition with fluconazole, primary screen, CaCi-2 strain, Alamar Blue fluorescence | 0.57% of 300,000 active | AID 1979, 2009 | C. albicans CaCi-2 (fluconazole-resistant clinical isolate) + fluconazole, 48 h | growth inhibition, % (test concentration not listed);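 active means most replicates above 75%; inconclusive means exactly half above 75%; inactive means most below 75%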;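 further: all wells also contain fluconazole at 8 µg/ml as a sub-toxic cotreatment; 0% = median of DMSO wells and 100% = median of geldanamycin control wells; wells of about 8 µL received 7.5 nL stock; the first replicate is given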
ALR H2O2 inh: inhibitors of human ALR sulfhydryl oxidase, primary screen, biochemical, H2O2 detection, HRP-luminol luminescence, single point. inhibition, % (test concentration not listed). purified ALR, DTT oxidation. 3.8% of 290,000 active;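 active means mean and each replicate at 75% or more; inconclusive means only one of the two met; inactive means neither met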;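 further: stock transfer was 7.5 nL into about 7.5 µL; 0% = neutral wells and 100% = wells with inactivated enzyme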
Beta2AR agonist: beta2AR agonists driving receptor internalization, primary screen, cell-based, FAP fluorogen, flow cytometry. Am2.2-beta2AR cells; reference of the scale not given here. AID 504454, 2011. 0.43% of 340,000 active. Beta-2 adrenergic receptor (Homo sapiens), P07550. response, % (concentration not given with the values);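 active means response above a set limit, near 3 SD of response in nonfluorescent compounds, cut at about 42% in these data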;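 further: stock transfer was 100 nL into about 11 µL; a reference agonist was the positive control; negative values mostly stem from fluorescent compounds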
Bfl-1 A1 inh: caspase 3/7 activation in MEF A1-2A-BIM cells, primary screen, A1 inhibitor project, cell-based, luminescence, HTS. Caspase-Glo 3/7 luminescence, 3 h; percent of clofoctol response, vehicle zero. caspase activation, % (test concentration not listed). 0.066% of 330,000 active;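 active means over half of replicate activation scores above 10%, or exactly half above 10 with the replicate mean above 10; inconclusive means replicate mean below 10 yet half the replicates above 10; inactive means over half of replicates below 10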;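 further: wells of about 30 µL received 50 nL stock; many hits fall short of the cut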
T cruzi repl: inhibitors of intracellular T. cruzi growth, primary screen, luminescence, NIH3T3 host cells | T. cruzi beta-gal in NIH3T3, 90 h | inhibition, % (no concentration beside the values) | 1.4% of 300,000 active | AID 1885, 2009;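 active means mean inhibition across valid replicates above about 55%, limit read from the data; inconclusive means mean below that limit but half or more replicates reach it; inactive means mean below it, under half of replicates reach it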;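 further: signal also drops with host cell toxicity which is not excluded here; 0% = plate median of DMSO wells and 100% = zero luminescence signal; higher percent means less beta-gal luminescence so fewer parasites; stock transfer was 50 nL into about 50 µL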
Ecoli rRNA inh: reduced GFP signal of wild-type E. coli, primary screen, bacterial rRNA inhibitor project, GFP/RFP fluorescence, OD600, single point; E. coli WT GFP vs humanized-ribosome RFP mutants, 24 h; hits give low values; DMSO median 0, no signal -100; GFP signal change (wild-type ribosome), % (test concentration not listed); 1.6% of 350,000 active; AID 720706, 2013;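 active means significant combined selectivity score with lowered wild-type GFP, culture density cut under 30%, mutant RFP and density less affected; inactive means any of these conditions unmet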; further: one replicate is shown; some compounds called inactive have numbers as strong as hits
Ecoli rRNA inh OD600: further read-out of Ecoli rRNA inh, marked with its call; OD600 change, %; measured here: OD600 growth;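 optical density of the mix in the first replicate; 0 = DMSO median and -100 = no signal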
Ecoli rRNA inh RFP: further read-out of Ecoli rRNA inh, marked with its call; RFP signal change, %; measured here: RFP humanized mutant strains;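 first replicate; 0 = DMSO median and -100 = no signal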
The depositor's hits bear a star; ? = inconclusive; / = not tested or not shown. These rows are one share of the data; the hit share may differ from the screen's.

Structure,LANA-H2B inh,Beta apoptosis,Calb FLC,ALR H2O2 inh,Beta2AR agonist,Bfl-1 A1 inh,T cruzi repl,Ecoli rRNA inh,Ecoli rRNA inh OD600,Ecoli rRNA inh RFP
CCCc1cc(C(=O)NNC(=S)NC2CCCCC2)cs1,1.0,-11,-30,1,-7,-0.6,-8,-6,5,3.5
O=C(CSc1nnc2ccccn12)NCc1cccs1,0.0,-8,-4,3,-2,-0.1,-5,/,/,/
CS(=O)(=O)N(CC(O)CON=C1c2ccccc2-c2ccccc21)c1ccc(F)cc1 (configuration not stated),-3.8,/,-5,-7,12,1.4,19,/,/,/
COc1ccc(OC)c(C2=NOC(C(=O)NCc3ccccn3)C2)c1 (configuration not stated),1.4,-9,12,-38,-10,0.7,-2,/,/,/
CCNc1ccccc1C(=O)O,-0.7,5,-3,-9,0,0.2,4,8,20,-6.7
COc1ccc(CCNC(=O)CCSc2nc(-c3ccco3)cc(C(F)(F)F)n2)cc1OC,1.6,0,3,-3,2,0.3,15,/,/,/
Cc1ccc2c(c1)NC(=O)C(N1CCOCC1)(C(F)(F)F)O2 (configuration not stated),-4.8,-4,1,0,-18,-0.7,4,/,/,/
COC(=O)Nc1nc(-c2cc(Cl)ccc2Cl)cs1,-0.5,/,-1,11,5,0.2,80*,-11,-13,0.7
CC(=O)Nc1ccc(S(=O)(=O)Nc2cc(C)cn(Cc3ccccc3)c2=O)cc1,-2.1,2,3,5,6,1.0,-11,/,/,/
COc1cccc(/C=N/N2CCOCC2)c1O,-11,1,0,55,6,-5.0,-23,8,12,1.5
O=C(CN1C(=O)C2CC=CCC2C1=O)NCC(=O)Nc1ccc(F)c(F)c1F (configuration not stated),-0.6,-4,-31,33,-1,-0.1,-6,24,20,5.3
COc1ccc(Cl)cc1NC(=S)NNC(=O)C1(C)CC1(Cl)Cl (configuration not stated),-2.9,9,22,52,6,-0.1,-16,-46,-70,-18
C=CCO/N=C(\C)c1c(O)c(C)c(-c2ccccc2)n(-c2ccccc2)c1=O,-4.5,-3,-3,4,0,-0.2,-21,/,/,/
CC(C)CN(C(=O)COC(=O)C(C)N1C(=O)c2ccccc2C1=O)c1c(N)n(Cc2ccccc2)c(=O)[nH]c1=O (configuration not stated),3.5,-4,1,1,-3,-0.6,-11,2,-2,1.5
O=C(CCN1C(=O)C2CC=CCC2C1=O)Nc1cc(C(F)(F)F)ccc1N1CCCC1 (configuration not stated),-1.5,-8,-1,4,4,0.8,21,-3,4,-0.6
Cc1nn(-c2ccc(Cl)cc2)c2sc(C(=O)c3c(N)n(C)c(=O)n(C)c3=O)cc12,3.1,-8,24,-16,-7,0.6,-7,/,/,/
O=C(COc1ncnc2sccc12)NC1CCCc2ccccc21 (configuration not stated),0.4,0,2,/,7,1.5,1,/,/,/
CS(=O)(=O)Nc1ccccc1C(=O)NCC1(N2CCCCC2)CCCCC1,1.7,-4,-20,-5,-1,0.3,11,7,10,1.2
Cc1ccc(NC(=O)COC(=O)C(CC(C)C)N2C(=O)C3CC=CCC3C2=O)c(C)c1 (configuration not stated),0.0,2,17,-35,-3,-1.3,-14,/,/,/
Nc1nc(=S)c2ncn(C3OC(CO)C(O)C3O)c2[nH]1 (configuration not stated),2.0,-3,-3,9,-6,1.1,-16,9,10,1.6
O=C(CN1C2=NCCN2c2ccccc21)c1ccc2c(c1)OCO2,5.2,3,-15,9,-1,-0.5,-9,/,/,/
C[C@H]1CN([C@@H](C)CO)C(=O)Cc2cc(NS(C)(=O)=O)ccc2O[C@@H]1CN(C)CC1CC1,-0.8,-6,/,1,-12,0.5,/,5,3,-0.3
O=C(/C=C/c1c(Cl)cccc1Cl)NCc1ccco1,1.2,0,-12,-8,1,0.6,-6,/,/,/
O=C(COC(=O)c1ccc[nH]c1=O)NCCc1ccc(F)cc1,0.7,0,-8,/,-1,0.2,-1,5,9,-1.6
O=C(CCNS(=O)(=O)c1ccc(Br)s1)NCc1ccc(F)cc1,-0.2,-4,16,-4,3,-0.5,-10,-1,-5,-2.2
O=C(N/N=C/c1ccncc1)c1cccs1,4.6,-2,-2,-4,-4,-4.0,-20,/,/,/
O=C(CCCCCCCC(=O)c1ccccc1)c1ccccc1,-8.6,-1,14,-18,2,-0.9,-8,4,-4,6.6
COc1ccc(C)cc1NC(=O)c1ccoc1C,-3.4,10,?,4,-11,0.1,5,/,/,/
O=C(Nc1ccccc1F)NC1CC1,-0.9,-2,2,-7,3,-1.8,3,14,1,-0.2
Cc1c(NC(=O)CN2C(=O)NC(C)(c3ccc(OC(F)F)cc3)C2=O)c(=O)n(-c2ccccc2)n1C (configuration not stated),2.8,3,-4,/,-5,0.5,-4,-7,-24,-1.9
Fc1ccc(-c2nnc(CSc3nnc(-c4ccc5c(c4)OCO5)o3)o2)cc1,3.2,-14,?,-6,3,-0.2,0,/,/,/
COc1ccc(NC(=S)NCc2ccccc2)c(OC)c1,-2.2,/,1,/,-2,-1.1,-11,14,3,1.4
CCOc1cccc(CN2CCC(Oc3ccc(C(=O)N4CCCC4)cc3)CC2)c1,-3.9,-1,-30,-2,-6,-0.6,-14,3,3,-3.2
CN(C)c1ccc(C(=O)/C=C/c2ccc(Br)cc2)cc1,-0.5,-3,1,-8,-1,0.4,6,-1,-1,-0.6
CCCc1[nH]nc2c1C(c1ccc(OCCN3CCOCC3)c(OCC)c1)C(C#N)=C(N)O2 (configuration not stated),-1.0,-9,-2,5,2,-0.2,-4,/,/,/
COc1ccc(CCC(C)Nc2ccc(F)cc2)cc1 (configuration not stated),-1.6,-8,8,98*,3,-0.9,-2,-26,-32,-2.3
COc1ccccc1OCC(=O)NN1Cc2ccccc2C1=N,3.5,0,0,4,17,2.2,-8,/,/,/
CCn1c(COc2ccccc2)nnc1SCC(=O)C(C)(C)C,-5.0,-3,6,12,-10,-1.9,12,/,/,/
COc1cc(NC(=O)C(=O)NNC(=O)C2CCCCC2)c(OC)cc1Cl,7.9,-2,19,4,7,-0.3,-5,/,/,/
c1ccc(NC(c2ccccc2)c2ccncc2)cc1 (configuration not stated),0.9,-2,7,-23,9,-0.1,-1,12,13,2.3
CCn1ccc(C(=O)Nc2ccccc2Cl)n1,5.5,0,22,-7,-4,-4.7,-5,0,3,-1.9
COc1ccc(CNC(=O)c2cc3cccc(O)c3oc2=N)cc1,-1.6,-10,11,-18,3,1.2,-14,8,11,5.3
COCCNC(=S)N1CCCN(c2nc3cc(C)ccc3cc2C#N)CC1,3.9,-1,16,-20,-2,0.0,6,0,0,-0.2
COC(=O)c1cc(S(=O)(=O)N2CCN(C(=O)c3ccco3)CC2)cn1C,1.6,-8,6,-14,-9,-0.5,1,7,12,-1.7
Cc1cc(C)c(CN2CCC(N3CCC(C(=O)NCC4CCCO4)CC3)CC2)cc1C (configuration not stated),-1.5,-7,2,-2,1,1.1,19,5,9,-1.5
Cc1cccn2c(=O)c3cc(C(=O)NCc4ccco4)c(=N)n(CCOCCO)c3nc12,1.7,0,6,-3,7,0.5,-14,/,/,/
CCc1cccc(NC(=O)CN2C(=O)NC3(CCCCCCC3)C2=O)c1,-1.1,-6,-20,-2,-3,-1.0,-9,/,/,/
O=C(O)C1CC(=O)N(c2ccc(OCc3ccccc3Cl)cc2)C1 (configuration not stated),1.3,11,-12,1,-2,-1.7,-3,-10,-11,-5.4
CCN1CCN(CC(=O)Nc2nc3ccccc3s2)CC1,-7.1,/,-4,1,-6,0.3,-1,-4,3,-2.3
CCCCn1c(CCCNC(=O)c2ccco2)nc2ccccc21,-1.4,/,6,-6,-16,0.1,-6,-4,-7,-0.3
Cc1cc(C)c(S(=O)(=O)NC2CC(C)(C)NC(C)(C)C2)cc1Br,0.7,/,-9,-4,-8,0.7,-12,4,5,3.2
Cc1n[nH]c(C)c1S(=O)(=O)N1CCCCCC1,1.8,/,5,-10,-6,0.2,-5,/,/,/
CC(C)CC(C(=O)OCC(=O)c1c(N)n(C)c(=O)n(C)c1=O)N1C(=O)c2ccccc2C1=O (configuration not stated),6.5,-4,-25,1,3,0.5,-4,/,/,/
O=C(CC(=O)c1ccccc1)Nc1cc(C(F)(F)F)ccc1Cl,2.6,0,3,0,-10,-0.1,-2,1,-4,-6.3
Nc1cc(=O)[nH]n1C1CCCC1,-4.7,-3,4,23,-1,0.6,-25,17,15,-1.9
Cn1ccsc1=NC(=O)c1ccc(S(=O)(=O)C(F)F)cc1,-3.7,/,6,0,-1,-9.0,-8,3,7,1.1
Cc1nn(-c2ccccc2)c2c1C(=O)N(Cc1ccccc1)C(=O)C(C)(C)C2,-1.9,2,10,-2,-3,0.0,26,/,/,/
CCC1=Nc2cc(C(=O)N3CCCCC3)ccc2Sc2ccc(C)cc21,6.0,-9,2,-23,31,-0.3,11,-10,-20,-1.2
CCCCn1c(N)c(N(CCOC)C(=O)c2ccc3c(c2)OCCO3)c(=O)[nH]c1=O,0.5,-6,4,-13,-1,-0.9,-5,18,12,2.1
Cc1ccc2sc(N(CCCN(C)C)C(=O)c3ccc(S(=O)(=O)N4CCc5ccccc5C4)cc3)nc2c1C,-4.4,/,8,3,30,-0.9,48,-29*,11*,-1.5*

Further results
Structure,LANA-H2B inh,Beta apoptosis,Calb FLC,ALR H2O2 inh,Beta2AR agonist,Bfl-1 A1 inh,T cruzi repl,Ecoli rRNA inh,Ecoli rRNA inh OD600,Ecoli rRNA inh RFP
Cc1ccc(S(N)(=O)=O)cc1NC(=O)/C=C/c1cccs1,3.4,0,-19,-4,-7,0.1,-1,/,/,/
CCCC(C(=O)O)n1c(O)c(C=C2N=c3ccccc3=N2)sc1=S (configuration not stated),-4.0,-1,-4,89*,-1,-0.2,-22,1,-1,4.8
O=C(Nc1n[nH]c(C(F)(F)F)n1)C1CC1,1.4,-9,20,-1,-10,-0.6,-3,22,16,4.0
CCOC(=O)c1cc(S(=O)(=O)NCCc2ccccc2)cn1C,0.3,-1,12,0,-1,-0.3,-1,2,4,1.6
COc1ccc(C(=O)NNC2=NC(C)(C)Cc3ccccc32)cc1,-1.3,-2,4,/,21,0.6,0,/,/,/
Cn1nccc1C(=O)Nc1ccc2c(c1)OCCO2,6.0,4,0,-8,-2,-14,-2,15,17,0.9
CCN(CC)c1nc2c(c(=O)[nH]c(=O)n2C)n1Cc1ccccc1,4.3,/,0,3,-3,0.1,-6,4,1,-0.7
